# Screens: PubChem, National Center for Advancing Translational Sciences (NCATS)
# CtBP-E1A inh = inhibitors of CtBP/E1A interaction; AlphaScreen GST-E1A/His-CtBP binding, 1536-well; hits give low values; control for the full effect not named in the record; actives 0.49% (n = 340,000); activity change, % (no concentration beside the values); in the data active means activity change below about -65%; inconclusive means about -30% to -65%; inactive means above about -30%; also: % is scaled to controls: 0 for no effect and ±100 for the full control effect; compound concentration not given in the record
#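 AlphaScreen with 125 nM GST-E1A and 125 nM His-CtBP (5X stocks) in Tris pH 8.0, 300 mM NaCl, BSA, Tween 20, TCEP. Compounds preincubated 2 h at 37 deg C, then glutathione donor/nickel acceptor beads added for 1 h at 37 deg C in dark.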
# gsp ag = gsp mutant agonism; actives 0.13% (n = 340,000); Potency, µM (doses to about 76.9 µM), for inactives: top-dose activation (cAMP increase), hits mostly activators; AID 624287; gsp mutant cells, cAMP HTRF, 30 min; control for the full effect not named in the record; active = well fitted activation curve with a large enough effect; inconclusive = small, poorly fitted or top-dose-only effect, or another doubt; inactive = no such curve, though single readings can be large or run the other way; cell line not stated here;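 also: phosphodiesterase inhibitor Ro 20-1724 added with compounds to block cAMP breakdown; potency is read from the fitted curve at half-maximal effect; nearly all actives have a fitted effect of over 60% in size; about a fifth of the inactives were tested at one dose only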
#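 Cells stably selected in G418 were plated at 2000/well, grown 16-24 hr, then given compounds in DMSO with the PDE inhibitor […] (300 uM solution added) for 30 min at 37C; cAMP was read by HTRF.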
# Six1-Eya2 blk = blocks human Six1 binding to Eya2. AlphaScreen GST-Six1/His-Eya2 binding, biochemical; hits give low values; control for the full effect not named in the record. activity change, % (test concentration not listed). actives 0.56% (n = 360,000); in the data active = activity change below about -65%; inconclusive = about -30% to -65%; inactive = above about -30%; also: % is scaled to controls: 0 for no effect and ±100 for the full control effect; compound concentration not given in the record
# Target sequence (O00167 whole entry, looked up): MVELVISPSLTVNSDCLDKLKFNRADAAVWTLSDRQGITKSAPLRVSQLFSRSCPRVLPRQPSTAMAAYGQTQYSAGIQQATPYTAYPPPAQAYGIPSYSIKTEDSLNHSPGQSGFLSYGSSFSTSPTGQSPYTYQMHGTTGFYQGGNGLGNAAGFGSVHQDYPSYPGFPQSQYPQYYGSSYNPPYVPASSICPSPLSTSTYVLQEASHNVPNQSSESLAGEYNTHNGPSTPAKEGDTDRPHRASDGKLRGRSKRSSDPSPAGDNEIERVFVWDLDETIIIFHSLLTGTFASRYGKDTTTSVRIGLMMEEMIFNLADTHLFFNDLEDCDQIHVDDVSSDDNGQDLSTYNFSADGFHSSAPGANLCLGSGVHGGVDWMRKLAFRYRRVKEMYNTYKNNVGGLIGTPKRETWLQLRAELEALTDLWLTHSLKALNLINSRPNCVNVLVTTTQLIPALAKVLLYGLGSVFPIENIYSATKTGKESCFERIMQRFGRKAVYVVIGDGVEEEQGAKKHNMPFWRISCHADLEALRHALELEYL
# Target sequence (Q15475 whole entry, looked up): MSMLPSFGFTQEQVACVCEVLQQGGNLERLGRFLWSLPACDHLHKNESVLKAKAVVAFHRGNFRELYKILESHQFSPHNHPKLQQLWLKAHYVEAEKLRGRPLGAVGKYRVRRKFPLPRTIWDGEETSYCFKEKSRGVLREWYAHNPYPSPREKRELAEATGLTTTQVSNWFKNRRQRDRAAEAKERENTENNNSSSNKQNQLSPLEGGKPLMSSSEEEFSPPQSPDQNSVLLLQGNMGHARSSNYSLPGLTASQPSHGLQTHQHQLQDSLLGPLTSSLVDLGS
#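 Six1/Eya2 binding was read as AlphaScreen signal after compounds were pinned into GST-Six1 plus His-tagged Eya2 (5X stock 250/500 nM) in pH 8.0 Tris/NaCl/TCEP buffer, beads added, then incubated 1 h, 37 C, dark.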
# D2 agonist = agonists of human D2 dopamine receptor (beta-arrestin); P14416; DiscoveRx PathHunter D2 beta-arrestin, luminescence, 90 min; 100% = 57 uM dopamine signal; activation, % (concentration not given with the values); actives 0.084% (n = 360,000); in the data active = activation above about 40%; inconclusive = about 15% to 40%; inactive = below about 15%; also: compound concentration not given in the record; the text of the record calls up to 30% inactive
#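 DiscoveRx PathHunter D2 beta-arrestin cells (2,100/well) attached overnight, then compound-stimulated 90 min at 37 C in HBSS/10 mM HEPES/0.1% Tween-20 buffer; beta-galactosidase complementation read by luminescence after 1 h at ambient temperature. Dopamine 57 uM final (EC100) as control.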
# D2 potentiator = human D2 receptor positive allosteric modulation | AID 624464 | P14416 | potentiation, % (test concentration not listed) | actives 0.23% (n = 360,000) | DiscoveRx D2 beta-arrestin cells, luminescence, 90 min; 100% = 57 uM dopamine signal; active = potentiation of 50% or more; inconclusive = 30% to 50%; inactive = 30% or less;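 also: compound concentration not given in the record; tested on top of an EC20 dose of dopamine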
#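 PathHunter beta-arrestin assay in DiscoveRx D2 cells. Compounds were added with an EC20 of dopamine (50 nM final) for 90 min at 37 deg C. Luminescence was read 1 h after detection reagent, with 57 uM dopamine as the EC100 control.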
# gsp antag = gsp mutant antagonism; gsp-mutant cells, cAMP HTRF, 30 min; control for the full effect not named in the record; Potency, µM (highest dose often 76.9 µM), without a hit: top-dose activity change, negative = inhibition, actives largely listed as inhibitors; actives 0.4% (n = 340,000); AID 624288; active = falling curve of any shape with a large fitted effect; inconclusive = falling curve, mostly with a smaller effect; inactive = flat or rising curve; cell line not stated here;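 also: intracellular cAMP measured with PDE inhibitor Ro 20-1724 present during compound exposure; potency is read from the fitted curve at half-maximal effect; % is scaled to controls: 0 for no effect and ±100 for the full control effect; nearly all actives have a fitted effect of over 65% in size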
#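 G418-selected cells were plated in DMEM/10% FBS for 16-24 h at 37C, then treated with compounds plus the PDE inhibitor […] (300 uM solution added) for 30 min at 37C. Intracellular cAMP was measured by HTRF after 30 min lysis at room temperature.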
# Numbers without * were called inactive; ? = inconclusive; . = not tested or not shown; [ ] = dose if it differs, or a comment. Rows were taken by chance. Share with any hit: about 1.4%.
SMILES,CtBP-E1A inh,gsp ag,Six1-Eya2 blk,D2 agonist,D2 potentiator,gsp antag
O=C(COc1ccc2ccc(=O)oc2c1)c1ccccc1,2,3%[15.4 µM],3,-0.1,-8,-3%
CCOC(=O)N1CCN(Cc2ccc3ccccc3c2)CC1,.,-8%,0,2.2,-32,-8%
CCCOC(=O)C(=O)NNc1ccccc1,-4,-1%[15.4 µM],0,-0.9,-5,1%
Cc1nn(C)c(C)c1S(=O)(=O)N1CCCC(C(=O)N2CCN(c3ccc(Cl)cc3)CC2)C1 (stereo not given),0,-1%,-10,-1.5,-3,?
Cc1cc(NC(=O)CSc2cn(CC(=O)N(C(C)C)C(C)C)c3ccccc23)no1,-4,-19%,-3,-3.0,-10,?
Cc1ccc(OC(C)C(=O)OCC(=O)Nc2sccc2C(N)=O)cc1 (stereo not given),0,?,-6,-0.9,-10,-33%
COc1ccc(OC)c(NC(=S)Nc2ccccc2)c1,-2,-3%[15.4 µM],-18,-0.5,-12,-8%
Cc1nn(C(=O)c2ccccc2)c2c1C(=O)CC(C)(C)C2,7,?,3,2.0,2,-1%
CS(=O)(=O)CCC(C(=O)Nc1ccc2c(c1)OCO2)N1Cc2ccccc2C1=O (stereo not given),-2,-13%,-3,-0.8,-1,15%
CC(=O)Nc1cc(C(=O)NCc2ccco2)ccc1Sc1ccc(F)cc1,-20,-40%[inhibitor],-9,-3.8,-25,3%
Cc1ccccc1-c1cc(=O)c2ccccc2o1,0,.,4,0.0,-9,-3%
CCOC(=O)COc1ccc(S(=O)(=O)Nc2cccc(SC)c2)cc1,-9,-2%,-13,-2.2,-4,-23%
CCCn1cnc2c(sc3nc4c(cc32)CSC(C)(C)C4)c1=O,-1,-12%,1,0.0,-6,5%
Cc1ccc(-n2ncc3c(=O)n(CC(=O)N4CCN(c5ccccc5)CC4)cnc32)cc1C,0,5%[15.4 µM],3,-7.1,2,4%
Cc1cccc(OCC(=O)Nc2ccc3c(c2)nc2n3CCOC2)c1,-2,-33%,-4,-4.8,-8,0%
Cc1cc(C)n2nc(SC(C)C(=O)N(C)c3ccccc3)nc2n1 (stereo not given),13,-11%,-2,-1.1,2,12%
O=C(Nc1ccc2c(c1)OCCO2)C1CCCN(S(=O)(=O)c2cnc[nH]2)C1 (stereo not given),0,29%,16,-1.8,-2,4%
CCOc1ccc(C(=O)N2CCCC2C(=O)O)cc1 (stereo not given),62,-11%,25,-1.8,-2,3%
CC(=O)Nc1cc(C(=O)N2CCc3ccccc3C2)ccc1Sc1ccc(C)cc1,-1,0%,-6,-5.9,-9,-17%
CC(C)(C)C(=O)NCc1ccc(C(=O)CSc2nnc(-c3ccncc3)n2C2CC2)s1,0,-30%,-5,-2.0,4,3%
COC(=O)c1ccc(CNC(=O)CNc2cc(C(F)(F)F)ccc2N2CCOCC2)cc1,4,13%,-6,-0.5,-12,0%
CCOC(=O)c1oc2ccccc2c1CN1CCN(C)CC1,21,?,24,-3.5,-12,?
COc1cc(/C=C(\C#N)C(=O)NCC2CCCO2)ccc1OC(=O)c1ccco1 (stereo not given),1,1%,-6,-1.1,-7,1%
Fc1ccc(-c2nnn(Cc3nc4ccccc4s3)n2)cc1,12,22%,35,1.1,2,-11%
CC(C)(C)NC(=O)COC(=O)c1ccccc1Oc1ccccc1,10,?,3,-3.6,5,-14%
O=C(CNC(=O)c1ccccc1Cl)NCC(c1cccs1)N1CCOCC1 (stereo not given),3,5%,2,-0.6,0,7%
CC(Sc1nncn1C)C(=O)Nc1ccccc1-c1ccccc1 (stereo not given),-2,8%,1,-0.8,-6,3%
CN1CCC(N(C)C(=S)NC(=O)c2cc(-c3cccc(Br)c3)nc3ccccc23)CC1,1,8%[15.4 µM],7,-4.3,-8,13%
CCOCCCNc1nc2c([nH]1)c(=O)n(C)c(=O)n2C,0,23%,26,-1.2,5,1%
O=C(CCNC(=O)c1ccc([N+](=O)[O-])cc1)Nc1cccc(S(=O)(=O)N2CCOCC2)c1,.,-7%,-7,5.7,10,5%
CCOC(=O)c1ccc(S(=O)(=O)NCCN2CCOCC2)cc1,9,-9%,3,-1.3,-5,6%
COc1ccccc1CNC(=O)Cc1ccc(OC)c(OC)c1,8,-13%,12,6.2,-4,5%
Cc1nc2ccccc2c(=O)n1/N=C/c1ccccc1F,1,?,-2,4.4,1,2%
COc1ccc2c(C(=O)CN3CCC(C)CC3)c[nH]c2c1,0,7%,24,-1.5,16,3%
COCCNC(=O)C(c1ccccc1C)N(CCOC)C(=O)Cn1nnc2ccccc21 (stereo not given),5,-23%,3,2.9,-4,-11%
CN(C(=O)c1cccc(NC(=O)Cc2ccc(NC(=O)C3CCN(C(=O)C4CCCC4)CC3)cc2)c1)C1CCCCC1,-5,.,0,0.3,9,4%
COCCN(C(=O)COC(=O)Cc1ccc(Cl)cc1Cl)c1c(N)n(Cc2ccccc2)c(=O)[nH]c1=O,4,3%,2,-3.6,12,-3%

# Of the compounds above, these contain a halogen:
SMILES,CtBP-E1A inh,gsp ag,Six1-Eya2 blk,D2 agonist,D2 potentiator,gsp antag
Cc1nn(C)c(C)c1S(=O)(=O)N1CCCC(C(=O)N2CCN(c3ccc(Cl)cc3)CC2)C1 (stereo not given),0,-1%,-10,-1.5,-3,?
CC(=O)Nc1cc(C(=O)NCc2ccco2)ccc1Sc1ccc(F)cc1,-20,-40%[inhibitor],-9,-3.8,-25,3%
COC(=O)c1ccc(CNC(=O)CNc2cc(C(F)(F)F)ccc2N2CCOCC2)cc1,4,13%,-6,-0.5,-12,0%
Fc1ccc(-c2nnn(Cc3nc4ccccc4s3)n2)cc1,12,22%,35,1.1,2,-11%
O=C(CNC(=O)c1ccccc1Cl)NCC(c1cccs1)N1CCOCC1 (stereo not given),3,5%,2,-0.6,0,7%
CN1CCC(N(C)C(=S)NC(=O)c2cc(-c3cccc(Br)c3)nc3ccccc23)CC1,1,8%[15.4 µM],7,-4.3,-8,13%
Cc1nc2ccccc2c(=O)n1/N=C/c1ccccc1F,1,?,-2,4.4,1,2%
COCCN(C(=O)COC(=O)Cc1ccc(Cl)cc1Cl)c1c(N)n(Cc2ccccc2)c(=O)[nH]c1=O,4,3%,2,-3.6,12,-3%
